# Screening data: PubChem BioAssay, several laboratories
# UUG fidelity = alters start codon recognition fidelity in yeast. actives 0.13% (n = 350,000). S. cerevisiae UUG-firefly luciferase reporter, luminescence/redox ratio. activity score, % at 18.7 µM;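 active = replicate mean at a twofold rise or more, about +100% in these data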;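 also: firefly luciferase made from a UUG start codon reports start codon fidelity; reporter light over untreated wells divided by growth signal over untreated wells; some hits fall short of that in this replicate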
# PABP FP inh = blocks human PABP binding to poly(A) RNA; P11940; actives 1% (n = 290,000); inhibition, % at 35 µM; fluorescence polarization;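 active = 50% or more with normal probe brightness, or confirmed in later tests; inconclusive = above 50% with abnormal brightness, or retests that disagree; inactive = below 50% or failed in later tests; about a fifth of its hits are not listed in these tables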;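 also: calls also rest on retests at 20 µM and on dose response follow-up; controls were probe without protein and protein plus probe with vehicle; some compounds called inactive have numbers as strong as hits; many hits fall short of the cut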
# Target sequence (P11940 whole entry, looked up): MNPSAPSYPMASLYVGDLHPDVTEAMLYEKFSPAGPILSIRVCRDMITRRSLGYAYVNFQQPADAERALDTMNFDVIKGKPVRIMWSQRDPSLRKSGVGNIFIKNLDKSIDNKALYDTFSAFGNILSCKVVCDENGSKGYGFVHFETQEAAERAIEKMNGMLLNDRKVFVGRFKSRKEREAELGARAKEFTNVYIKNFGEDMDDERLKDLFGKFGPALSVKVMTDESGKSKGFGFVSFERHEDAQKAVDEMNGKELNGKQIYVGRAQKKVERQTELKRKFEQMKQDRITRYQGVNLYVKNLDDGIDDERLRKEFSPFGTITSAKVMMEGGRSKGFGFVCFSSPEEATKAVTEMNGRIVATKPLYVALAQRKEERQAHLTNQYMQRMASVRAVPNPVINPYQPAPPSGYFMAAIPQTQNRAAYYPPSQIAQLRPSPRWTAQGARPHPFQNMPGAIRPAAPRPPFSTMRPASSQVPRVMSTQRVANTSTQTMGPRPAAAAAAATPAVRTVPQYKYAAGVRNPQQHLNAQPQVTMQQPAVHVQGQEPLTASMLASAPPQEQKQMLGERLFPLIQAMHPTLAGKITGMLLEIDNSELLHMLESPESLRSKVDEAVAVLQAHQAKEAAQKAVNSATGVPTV
# Env fusion inh = inhibitors of HIV Env-mediated cell fusion; actives 1.1% (n = 360,000); inhibition, % at 12.3 µM; HeLa-JRFL Env/CEM21 cell fusion, luciferase;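 active = mean replicate inhibition score of at least 50 and every replicate individually at or above 50; inconclusive = only one of the two criteria met; inactive = mean below 50 and not all replicates reaching 50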;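 also: 0% = plate neutral controls and 100% = maraviroc near 300 nM; one replicate is shown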
# MT1-MMP act inh = inhibitors of human MT1-MMP activation | HT1080 RFP-PRO-GFP cells, GFP/RFP ratio fluorescence, overnight; percent of plate control window, DMSO zero | GFP/RFP ratio change, % at 20 µM | actives 0.061% (n = 360,000) | AID 651647;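 active = GFP/RFP ratio change of at least 30% with cell ATP level not reduced by more than half and red fluorescence within 50% of control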; also: strong numbers were not always called active
#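 Assay system – RFP-PRO-GFP reporter HT1080 cells · Compound dosing – single dose of 20 µM compound, 1% DMSO final · Incubation – overnight compound exposure at 37 °C · Measure – GFP/RFP fluorescence ratio · Benchmarks – DMSO wells and RFP-L50D-GFP cells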
# eIF4H FP inh = inhibitors of RNA binding by human eIF4H; eIF4H fluorescence polarization binding assay; inhibition, % at 35 µM; AID 2012; Q15056; actives 0.94% (n = 290,000);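 active = 50% or more with normal probe brightness, or confirmed in later tests; inconclusive = above 50% with abnormal brightness, or retests that disagree; inactive = below 50% or failed in later tests; about a fifth of its hits are not listed in these tables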;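 also: calls also rest on retests at 20 µM and on dose response follow-up; 0% = protein and probe with vehicle and 100% = probe without protein; strong numbers were not always called active; many hits fall short of the cut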
# Rce1 inhib = inhibitors of yeast Ras-converting enzyme; calls only; yeast membranes, quenched prenylated peptide cleavage fluorescence; actives 0.27% (n = 290,000);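 active = fall in fluorescence gain of 50% or more versus controls, with final raw signal at or below 3038400; inconclusive = same 50% fall but final raw signal above 3038400; inactive = fall in fluorescence gain under 50%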;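 also: plate controls were neutral control wells for no effect and wells lacking membranes for full effect; tested at 10 µM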
# Target sequence (Q03530 whole entry, looked up): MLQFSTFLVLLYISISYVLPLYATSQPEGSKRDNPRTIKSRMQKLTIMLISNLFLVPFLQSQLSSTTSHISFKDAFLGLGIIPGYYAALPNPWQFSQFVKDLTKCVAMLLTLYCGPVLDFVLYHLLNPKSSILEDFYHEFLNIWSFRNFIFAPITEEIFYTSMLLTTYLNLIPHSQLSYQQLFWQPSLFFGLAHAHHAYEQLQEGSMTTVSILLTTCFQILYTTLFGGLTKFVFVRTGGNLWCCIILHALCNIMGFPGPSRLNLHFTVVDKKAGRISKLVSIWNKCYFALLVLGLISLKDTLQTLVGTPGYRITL
# CSC inhib = blocks cancer stem cells; cancer stem cell-like cells viability, luminescence; inhibition, % at 7.5 µM; actives 1.1% (n = 300,000); AID 2717;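 active = mean at 75% or more and at least half the replicates too; inconclusive = mean and replicates disagree; tested in HMLE shEcad cells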;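 also: 0% = median of negative and 100% = median of positive control wells; the first replicate is given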
# eIF4H FP inh retest = further read-out of eIF4H FP inh, marked with its call; inhibition, %; compound at 20 µM; confirmation average;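 mean of two retest wells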
# PABP FP inh retest = second read-out of PABP FP inh, no call of its own (marks repeat the call); inhibition, %; compound at 20 µM; confirmation repeats;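 mean of two retest wells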
# MT1-MMP act inh RFP = second read-out of MT1-MMP act inh, no call of its own (marks repeat the call); RFP signal change, %; measured here: RFP expression control read;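 0 = vehicle wells; hits needed this value within 50% of zero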
# Active calls of the source: *; i = inactive; u = inconclusive; x = not tested or not shown. This is a subset. The share of hits here may be higher or lower than overall.
SMILES,UUG fidelity,PABP FP inh,Env fusion inh,MT1-MMP act inh,MT1-MMP act inh RFP,eIF4H FP inh,Rce1 inhib,CSC inhib,others
CCCn1c(SCC(=O)NC(C)C23CC4CC(CC(C4)C2)C3)n[nH]c1=O (stereo not given),-0.4,-0.1,x,3.6,0.6,11.6,i,-3.1,
O=C(Nc1ccccc1C(=O)NCC1CCCO1)c1ccc(Cl)cc1 (stereo not given),2.9,-1.7,x,-1.0,-1.0,1.5,i,-1.5,
Cc1nn(C)cc1C(C(=O)NC1CCCCC1)N(CCc1ccccc1)C(=O)c1cnccn1 (stereo not given),x,5.1,9.9,2.3,3.5,-7.9,i,-7.4,
Cc1ccc(C(=O)COC(=O)CNC(=O)c2ccccc2)s1,15.9,x,x,0.9,2.2,x,x,6.3,
COc1cccc2c1Oc1ncccc1N(C(=O)CCC(=O)NCc1ccccc1F)C2,-2.2,-2.6,5.8,-2.9,0.1,-2.0,i,6.3,
Cc1ccc(/C=N/NC(=O)c2ccccc2OCc2ccc(F)cc2)o1,-8.9,85.7,-0.1,-4.2,-12.2,2.9,i,1.1,eIF4H FP inh retest=-13.8;PABP FP inh retest=3.8
Cn1c(CCNC(=O)c2ccccc2F)nnc1SCC(=O)Nc1ccccc1F,-7.1,-3.9,17.9,0.1,0.0,4.9,i,-0.4,
COc1cccc(-c2nn(-c3ccccc3)cc2CN(C)Cc2ccno2)c1,x,-3.3,14.5,1.6,-13.7,-7.0,i,7.3,
CCCCCCOC(=O)Cc1c(C)nc(-c2ccccc2)[nH]c1=O,1.8,-1.0,x,-1.2,-3.5,-8.3,i,0.6,
Cc1nn(C2CCCO2)c(=O)nc1N (stereo not given),x,-1.2,-4.7,x,x,3.6,i,-9.2,
CCOC(=O)C(C)Oc1ccc2c(CC)cc(=O)oc2c1C (stereo not given),0.3,1.2,x,-0.5,5.5,6.0,i,-7.4,
Cc1ccc(C)c(OCc2nnc(NC(=O)c3ccco3)s2)c1,-7.9,4.4,x,0.0,4.1,-9.4,i,-12.1,
COC(=O)c1ccccc1NS(=O)(=O)c1ccc(O)c(C(=O)O)c1,-11.6,12.8,x,1.7,-1.7,1.8,i,-0.1,
CCc1ccccc1OCC(=O)NNCC(=O)Nc1cccc(C#N)c1,3.3,x,-1.7,4.1,-1.9,x,x,x,
CC(C)c1nnc(NC(=O)C2CCCN2S(=O)(=O)c2ccc(Cl)cc2)s1 (stereo not given),-14.7,0.4,5.0,5.7,3.2,-1.6,i,4.6,

# Brought forward from above: three compounds; new compounds follow.
SMILES,UUG fidelity,PABP FP inh,Env fusion inh,MT1-MMP act inh,MT1-MMP act inh RFP,eIF4H FP inh,Rce1 inhib,CSC inhib,others
COC(=O)c1ccccc1NS(=O)(=O)c1ccc(O)c(C(=O)O)c1,-11.6,12.8,x,1.7,-1.7,1.8,i,-0.1,
CCc1ccccc1OCC(=O)NNCC(=O)Nc1cccc(C#N)c1,3.3,x,-1.7,4.1,-1.9,x,x,x,
CC(C)c1nnc(NC(=O)C2CCCN2S(=O)(=O)c2ccc(Cl)cc2)s1 (stereo not given),-14.7,0.4,5.0,5.7,3.2,-1.6,i,4.6,
N#C/C(C(=O)N1CCOCC1)=C1/SC(Cc2ccccc2)C(=O)N1c1ccccc1 (stereo not given),-14.3,-0.2,x,-17.9,-2.4,-8.0,i,-10.0,
O=C(CSc1nc(=O)n2ccccc2n1)N1CCC(Cc2ccccc2)CC1,-3.9,x,13.1,-0.9,-6.0,x,i,-12.5,
Cc1ccc(-c2nc(CS(=O)(=O)CC(=O)NC3CCCCCC3)c(C)o2)cc1,-13.1,-1.7,1.0,3.0,-4.3,11.3,i,2.7,
O=C(CCc1ccccc1Cl)Nc1cc2c(cc1C(=O)O)OCCCO2,-10.8,x,4.0,2.0,1.2,x,x,11.1,
CCOc1ccc(NC(=S)NNC(=O)c2cc(Br)ccc2Cl)cc1,x,6.8,-9.0,5.1,4.8,10.8,i,-4.8,
CCC(=O)Nc1c(-c2ccccc2)c(=O)c2ccccc2n1C,-14.7,4.1,10.5,-0.8,0.5,4.8,i,-10.9,
COc1ccc(C(=O)OC(C)C(=O)NC(C)CCc2ccccc2)cc1OC (stereo not given),-8.9,0.7,16.1,-0.1,-1.3,-7.3,i,-17.4,
COc1ccc(-n2c(=S)[nH]c3ccccc32)cc1,-21.8,8.9,-15.9,21.9,6.7,-7.9,i,-1.9,
CC(=O)c1cc(O)c2ccccc2c1O,0.2,31.7,-32.6,-19.2,12.2,12.8,i,17.6,
CCCCCCCCC[n+]1cccc2c3ccccc3ccc21,x,0.9,x,-47.3,-42.9,-8.2,i,57.6,
CSc1ccc(CN(C)C(=O)CCNS(=O)(=O)c2ccc(C)c(C)c2)cc1,-14.4,x,-7.3,0.9,-6.8,x,i,-13.7,
O=C(c1ccc2c(=O)n3c(nc2c1)CCCCC3)N1CCN(c2cccc(Cl)c2)CC1,0.3,-5.6,x,4.5,0.1,-15.4,i,68.6,
O=S1(=O)CCC(NC(=S)NC2CCS(=O)(=O)C2)C1 (stereo not given),-10.3,16.6,0.8,6.0,8.0,4.3,i,2.4,
O=C(CCCl)Nc1nnc(SCC(=O)NC2CCCC2)s1,-22.1,3.9,2.2,-0.1,1.8,-17.2,i,-2.6,
CCN(CCC(=O)O)c1ccccc1,x,3.5,x,3.9,3.7,-8.4,i,-5.8,
COc1ccc(C(C)(O)c2nc(-c3cncnc3)cs2)cc1 (stereo not given),-8.0,x,-1.5,-0.6,4.2,x,x,x,
COc1ccc(CCNC(=O)c2noc(C)c2[N+](=O)[O-])cc1OC,4.7,5.5,2.4,2.9,4.9,-9.7,i,-7.3,
O=C(NCc1cccc(Cl)c1)c1ccc(-c2ccc(F)c(F)c2)c2ccoc12,-11.2,x,-12.0,6.3,0.0,x,x,x,
CCC(C)N(C(=O)CSc1ccc(NC(C)=O)cc1)C1CCS(=O)(=O)C1 (stereo not given),x,-5.2,1.9,-0.1,2.0,-16.4,i,-4.6,
Cc1nc2c(c3c1[nH]c1ccccc13)C(=O)CC(C)(C)C2,-2.4,-4.6,x,-5.8,-2.7,-17.4,i,-10.3,
CC(C)(C)c1cc(/C=N/NC(=O)C[n+]2ccccc2)cc(C(C)(C)C)c1O,-17.1,-10.7,16.8,-5.4,-2.6,-6.0,i,-6.9,
COC(=O)c1cccc(S(=O)(=O)N(Cc2ccco2)Cc2cc3cc(OC)ccc3[nH]c2=O)c1,-6.6,5.7,-3.3,-7.9,-5.7,4.2,i,-10.7,
O=C(N/C(=C\c1cn(-c2ccccc2)nc1-c1ccc(Cl)cc1)C(=O)N1CCOCC1)c1ccccc1,x,5.9,-9.0,x,x,-2.2,i,-15.0,
Cc1ccccc1CSc1ncc(C#N)c(N)n1,-16.4,-12.1,x,1.0,1.5,8.4,i,5.4,
N#Cc1ccccc1Sc1ccccc1C(=O)Nc1ccc(Br)cc1,-19.9,-7.4,-6.6,3.3,7.0,-12.5,i,8.5,
COC(=O)CSc1nc(N)c(C#N)c(-c2ccco2)c1C#N,-11.4,11.0,x,0.0,-0.5,0.2,i,11.1,
O=[N+]([O-])c1ccc(OCCO)c(P(=O)(c2ccccc2)c2ccccc2)c1,-6.2,4.7,11.2,-3.4,-4.3,-2.9,i,1.4,
COc1cccc(OC)c1C(=O)Nc1ccc([N+](=O)[O-])cn1,-20.4,9.8,-9.2,-0.3,-1.3,3.5,i,0.4,
COc1ccc(N2C(=O)CC(N(Cc3ccco3)C(=O)CCC(=O)O)C2=O)cc1 (stereo not given),22.2,5.9,-1.1,-3.9,4.5,5.0,i,-6.0,
O=C(NCc1ccccc1Cl)C1CCCN1C(=O)NC1CCCCC1 (stereo not given),-12.3,18.3,-4.4,3.2,-0.2,-6.4,i,3.8,
CCOc1cnc(-c2ccc(Cl)cc2)o1,x,-5.3,x,8.2,6.3,-0.4,i,9.7,
CCOC(=O)/C(C#N)=C1/C=CN(C)C=N1,-15.7,3.3,-39.1,4.2,4.4,0.7,i,-8.9,
Cc1ccc(NC(=O)CCNS(=O)(=O)c2ccc3c(c2)c(=O)n(C)c(=O)n3C)cc1C,x,7.4,9.9,1.6,4.1,-10.6,i,x,
CC(COc1cccc2ccccc12)CN1CCN(C)CC1 (stereo not given),-9.2,-2.7,32.4,-4.1,-0.1,-6.2,i,58.8,
O=C(CCNS(=O)(=O)c1cccc2nsnc12)NCc1ccccc1,-6.4,10.5,-6.4,-3.4,-2.5,-1.4,i,-2.9,
O=C(c1ccco1)N1CCN(Cc2cc(=O)c(OCc3ccc([N+](=O)[O-])cc3)co2)CC1,-0.2,x,8.0,1.3,0.4,x,i,-5.3,
COc1ccc(OC)c(NC(=O)C2CCN(S(=O)(=O)c3ccc4c(c3)OCCO4)CC2)c1,4.4,x,x,0.3,4.9,x,i,-15.2,
Cc1cc(C)n(CC(=O)Nc2ccc([N+](=O)[O-])cc2)n1,x,4.4,14.9,0.7,4.4,-6.8,i,-7.8,
O=C(CCCCCN1C(=O)c2cccc([N+](=O)[O-])c2C1=O)Nc1ccccc1F,-9.0,10.1,9.3,-4.0,1.9,7.7,i,8.5,
CCN(CC)CCn1c(=N)n(CC(O)COc2cccc(C)c2)c2ccccc21 (stereo not given),x,8.5,u,2.7,0.8,2.6,i,2.1,
COC(=O)c1ccc2c(c1)sc(=NC(=O)CCS(=O)(=O)c1ccccc1)n2C,-6.6,x,-6.2,-0.2,1.6,x,i,10.2,
CC1CN(C(=O)CS(=O)(=O)Cc2ccccc2)CC(C)O1 (stereo not given),-14.3,-5.4,-6.0,-3.9,0.1,-9.9,i,-8.1,
CCOc1ccc(CC(=O)N/N=C/c2cccnc2)cc1OCC,-18.2,-16.7,-2.5,1.3,-2.3,-9.8,i,4.6,
COc1ccccc1/C=N/Nc1nc(C)cc(C)n1,-0.2,17.3,-12.3,1.0,-2.7,24.4,i,-4.8,
Cc1cc(NC(=O)CSc2nnc(C3CC3)n2N)no1,-17.2,-4.6,x,-2.9,-1.2,0.7,i,10.8,
Cc1sc2ncnc(NS(=O)(=O)c3ccc(Cl)cc3)c2c1C,-11.7,x,x,-0.7,-14.3,x,x,28.4,
COc1cc(NS(=O)(=O)c2cc3c(cc2C)NC(=O)CO3)cc(OC)c1,-9.9,2.0,6.8,-3.4,-5.4,-3.0,i,-2.2,
Cc1ccc([N+](=O)[O-])cc1NC(=S)NC(=O)c1cccnc1,x,-9.2,15.7,-0.9,0.0,-4.8,i,-4.7,
CC1(C)O[C@@H]2[C@H](O1)[C@@H](CO)O[C@H]2n1cnc2c(=O)[nH]cnc21,-6.6,x,12.2,2.1,9.7,x,x,-1.0,
CC(=O)Nc1ccc(NC(=O)CN(C)S(=O)(=O)c2ccc3ccccc3c2)cc1,-10.2,0.4,-2.5,2.2,-2.5,-9.1,i,2.9,
c1ccc2cc(-c3csnn3)ccc2c1,-18.4,3.8,x,6.7,8.5,-9.8,i,x,
CC(=O)NC1(c2cccc(F)c2)CCN(C(=O)Nc2ccc(C#N)cc2)CC1,-15.7,-2.1,12.1,2.1,5.0,-2.4,i,1.3,
